RE007 growth inh = qHTS Assay for Inhibitors of the HIV-1 protein Vpr; Potency, µM (doses to about 92.2 µM), without a hit: top-dose activity change, negative = less growth; 360,000 tested, 0.21% active; S. pombe RE007 Vpr strain, BacTiter-Glo ATP luminescence, 24 h; control for the full effect not named in the record; active = well fitted falling curve with a large enough effect; inconclusive = small, poorly fitted or top-dose-only effect; inactive = no such curve, though single readings can be large or run the other way;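 note: % is set by controls: 0 for no effect and ±100 for the full control effect; nearly all actives have a fitted effect of over 50% in size; the assay follows cell death caused by Vpr and the record does not say whether a fall means rescue or toxicity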
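Fission yeast strain RE007, carrying one chromosomally integrated HIV-1 vpr copy, was seeded at OD 0.01 in PMG+AL medium with 23 nL pinned compound. After 24 h at 30 °C and 99% humidity, viability was read by BacTiter-Glo luminescence.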
SARS PLP yeast = qHTS of Yeast-based Assay for SARS-CoV PLP; 330,000 tested, 0.19% active; Potency, µM (titrated, usually from 32.9 µM), without a hit: at the highest dose activity, positive = growth rescue; AID 485353, 2010; S. cerevisiae expressing SARS-CoV PLpro, growth rescue; control for the full effect not named in the record; active means well fitted rising curve with a large enough effect; inconclusive means small, poorly fitted or top-dose-only effect; inactive means no such curve, though single readings can be large or run the other way; note: 0% is about no effect; nearly all actives have a fitted effect of over 55% in size; growth read by luminescence after 48 h
2A StopGo = High Throughput Screening for Foot and Mouth Disease Virus Antivirals; human cells with a luciferase reporter of 2A StopGo recoding; control for the full effect not named in the record; Potency, µM (titrated, usually from 57.9 µM), for the others: at the top dose signal change, negative = less light; 410,000 tested, 1.2% active; active = well fitted falling curve with a large enough effect; inconclusive = small, poorly fitted or top-dose-only effect; inactive = no such curve, though single readings can be large or run the other way; tested in HEK293T cells; note: % is set by controls: 0 for no effect and ±100 for the full control effect; nearly all actives have a fitted effect of over 45% in size; luciferase light after 4 h
Active calls of the source: *; ? = inconclusive; & = joins results of further samples; [ ] = remark or other dose. Potency is the fitted concentration of half-maximal effect. Not all compounds are listed; rates above refer to the full screens.

Fields: 2A StopGo, RE007 growth inh, SARS PLP yeast
CC[C@@]12C(=O)N(c3ccc(C)cc3)C(=O)N1[C@H](c1cccc(C)c1)[C@@H]1C(=O)N(Cc3ccccc3)C(=O)[C@@H]12
    -11%, -10%, -2%
COC(=O)C1(C)NCCc2c1[nH]c1ccccc21 (stereo not drawn)
    -6%, -7%, 0%
COc1cc(NC(=S)Nc2ccccn2)c(OC)cc1Cl
    10%, 9%, -1%
COc1ccc(C(=O)NC(C(=O)NCc2ccccc2OC)C(C)C)cc1 (stereo not drawn)
    -1%, 1%, 6%
O=C(NCC1CCCO1)c1cn(Cc2ccccc2)nc1-c1ccc(Cl)cc1 (stereo not drawn)
    52%[activator], 3%, -7%[6.58 µM]
C=CCC[C@H](Cc1ccc(F)cc1)C(=O)OC[C@@H](Cc1c[nH]c2ccccc12)NC(=O)[C@@H](CC=C)CC(=O)N[C@H](CO)Cc1ccccc1
    -24%, 7%, 2%
COc1ccc(NC(=O)CNCc2ccc(Cl)cc2)cc1S(=O)(=O)N1CCOCC1
    15%, 8%, -2%
Cc1ccc(C(=O)OCC(=O)NC(C)C2CC3CCC2C3)cc1N (stereo not drawn)
    -18%, -4%, -1%
Cc1cccc(OC(=O)c2ccncc2)c1C
    3%, 4%, 3%
Cc1c(Cl)cnc(NC(=O)COC(=O)C2CCCC2)c1Cl
    -6%, 4%, -1%
O=C(CN(Cc1ccco1)C(=O)c1ccccc1F)Nc1ccccc1C(F)(F)F
    -9%, -6%, 18%
C[C@H](NC(=O)c1ccco1)C(=O)NC1CCCCCC1
    10%, -3%, -6%
COc1cc(C2c3c(c(C)c(C)oc3=O)Oc3c(C)c(C)oc(=O)c32)ccc1OS(=O)(=O)c1ccc(C)cc1
    4%, -1%, 4%
COc1ccc(-c2sc3cc4c(cc3c2C#CC2(O)CCCCC2)OCO4)cc1
    -17%, -19%, -6%
CCCCC/C=C/C1=CC(=O)C[C@H](c2ccc(OC)cc2)C1
    -7%, -8%, -3%

Pulled one by one from the list above:
Fields: 2A StopGo, RE007 growth inh, SARS PLP yeast
CCCCC/C=C/C1=CC(=O)C[C@H](c2ccc(OC)cc2)C1
    -7%, -8%, -3%
O=C(CN(Cc1ccco1)C(=O)c1ccccc1F)Nc1ccccc1C(F)(F)F
    -9%, -6%, 18%

Going on with the list.
Fields: 2A StopGo, RE007 growth inh, SARS PLP yeast
COC(=O)C1=C(c2cccc(OCc3ccccc3)c2)C[C@@H]2CC[C@H]1N2C(=O)NCCc1ccc(F)cc1
    -9%, 5%, -3%
CNC(=O)C1CC(=O)N(c2ccc(OCC(=O)Nc3ccc(OC)cc3)cc2)C1 (stereo not drawn)
    -6%, 0%, -2%
COc1ccccc1C(=O)COC(=O)c1ccc(Cl)nc1
    28%, 2%, 3%
C=CC[C@@H](CC(=O)N(CCO)Cc1ccccc1)C(=O)N[C@@H](C)COC(=O)[C@@H](CC=C)Cc1ccc(F)cc1
    ?, 5%, -8%
Cc1nnc(NC(=O)C2CCN(S(=O)(=O)c3ccc(F)c(F)c3)CC2)o1
    -20%, 6%, 6%
CC1CN(c2ccc([N+](=O)[O-])cc2Cl)CCN1 (stereo not drawn)
    -1%, -5%, 1%
CC(C)CC(C(=O)NC(C)(C)C)N(Cc1cccs1)C(=O)c1snc(C(N)=O)c1N (stereo not drawn)
    -20%, -8%, 1%
COc1cc(C(=O)OCC(=O)N2CCCCC2C)ccc1OCc1c(C)noc1C (stereo not drawn)
    -13%, 0%, -3%
CCN(C[C@H]1N[C@@](CC)(C(=O)OC)[C@H]2C(=O)N(Cc3ccccc3)C(=O)[C@@H]12)S(=O)(=O)c1ccc(C)cc1
    -10%, -14%, 2%
COC(=O)C1=C(c2ccc(F)cc2OCc2ccccc2)C[C@@H]2CC[C@H]1N2C(=O)NCc1cc(C)oc1C(F)(F)F
    -24%, -3%, -2%
C[C@@]12C(=O)N(Cc3ccccc3)CC(=O)N1[C@H]1c3cc(Cl)ccc3OC[C@@H]1[C@@H]2c1ccccc1
    -38%, 2%, -1%
CSCCC(NC(=O)c1ccco1)C(=O)NCC1CCCCC1 (stereo not drawn)
    -5%, 1%, 2%
Cc1ccc(NC(=O)c2sccc2-n2cccc2)c(Cl)c1
    21%, -25%, 3%
CC(C)NC(=O)Nc1cccc2c1O[C@H](CN(C)S(=O)(=O)c1ccccc1)[C@@H](C)CN([C@H](C)CO)C2=O
    2%, 6%, -4%
COc1ccccc1NC(=O)CSc1nnc2ccccn12
    16%, -3%, 6%
O=C(CN1CCN(CN2C(=O)NC3(CCCCCC3)C2=O)CC1)Nc1cccc(F)c1
    -4%, -11%, 0%
CCC(=O)c1cn([C@H](CCC(OC)OC)CC(=O)OC(C)(C)C)cc1CC
    -24%, -4%, -5%
CCOC(=O)c1c(C)[nH]c(C)c1C(=O)COC(=O)c1cccnc1SC
    -20%, 20%, -24%
COc1ccc(S(=O)(=O)N2CCOCC2)cc1NC(=O)CN1C(=O)NC2(CCCC2)C1=O
    -1%, -3%, 3%
O=C(C[C@@H]1C/C=C\CC[C@H](Cc2ccc(F)cc2)C(=O)OC[C@@H]2CCCN2C1=O)N[C@H](CO)Cc1ccccc1
    -25%, -7%, -3%
Cc1csc(NC(=O)C2CCN(C(=O)c3ccccc3C)CC2)n1
    -7%, -6%, 3%
CCC1Nc2ncnc(N3CCN(c4ccccc4)CC3)c2N(Cc2ccccc2)C1=O (stereo not drawn)
    ?, -8%&5%, -7%
CCc1cc(C(=O)Nc2nc(-c3ccccn3)cs2)sc1C
    5%, -10%, -1%
Cc1ccc(CNC(=O)c2ccc(N3CCC4(CC3)CC(c3cccc(Br)c3)=NO4)c([N+](=O)[O-])c2)cc1
    -16%, -3%, 0%
CCN(C[C@H]1N[C@@](Cc2ccccc2)(C(=O)OC)[C@H]2C(=O)N(C)C(=O)[C@@H]12)C(=O)c1ccc(F)cc1
    -11%, -24%, 0%
CN(CC(=O)Nc1cccc(F)c1)C(=O)c1sc2ccccc2c1Cl
    43%[activator], 8%, 4%
CCOc1cc(/C=N/NC(=O)c2ccc(O)cc2)ccc1Oc1nc(Cl)ncc1F
    -25%, -9%, 0%
COc1ccc2c(c1)CCc1c(C(=O)NCC(C)C)noc1-2
    -5%, 6%, 3%
COc1cc2c(cc1OC)CN(CC(=O)Nc1ccccc1C(=O)NC1CC1)CC2
    -16%, 12%, 8%
O=C(NN1C(=O)c2ccccc2NC1c1ccoc1)c1ccc([N+](=O)[O-])cc1 (stereo not drawn)
    -16%, 11%, 6%

3 structures out of the list, arranged by number of heavy atoms, largest number first:
Fields: 2A StopGo, RE007 growth inh, SARS PLP yeast
Cc1ccc(CNC(=O)c2ccc(N3CCC4(CC3)CC(c3cccc(Br)c3)=NO4)c([N+](=O)[O-])c2)cc1
    -16%, -3%, 0%
COc1ccc(S(=O)(=O)N2CCOCC2)cc1NC(=O)CN1C(=O)NC2(CCCC2)C1=O
    -1%, -3%, 3%
Cc1csc(NC(=O)C2CCN(C(=O)c3ccccc3C)CC2)n1
    -7%, -6%, 3%

New compounds follow
Fields: 2A StopGo, RE007 growth inh, SARS PLP yeast
Cc1sc2ncnc(N3CCC(C(=O)Nc4ccc(S(N)(=O)=O)cc4)CC3)c2c1C
    ?, 3%, 1%
Cc1ccc(C2(C)NC(=O)N(CC(=O)NNC(=O)c3ccccc3)C2=O)cc1 (stereo not drawn)
    5%, -18%, -2%
CC(=O)Nc1cccc(-c2cnc(N)c(C(=O)c3cccnc3)n2)c1
    -4%, 6%, 1%
CCCn1c(N)c(C(=O)COC(=O)CNC(=O)c2ccccc2OCC)c(=O)[nH]c1=O
    -17%, -11%, 7%
C[C@]12c3[nH]c4cc(-c5ccco5)ccc4c3CCN1C(=O)[C@@H](CC(=O)NCc1ccco1)C[C@@H]2C(=O)N1CCCCC1
    -25%, 9%, -5%
COc1cccc(-c2c(-c3cc(OC)cc(OC)c3)n(C)c3ccc(-c4ccc5cc[nH]c5c4)cc23)c1
    0%, 16%, 0%
CCN(C[C@H]1N[C@@](CC)(C(=O)OC)[C@H]2C(=O)N(C)C(=O)[C@@H]12)C(=O)Nc1ccccc1
    -18%, -7%, 0%
COC(=O)C1=C(c2cccc(OCc3ccccc3)c2)C[C@@H]2CC[C@H]1N2C(=O)NCc1cccc(F)c1
    -1%, 18%, 0%
CC(C)(C)OC(=O)C[C@@H]1C/C=C\C[C@H](CC(=O)NCCO)C(=O)NC[C@H](c2ccccc2)OC1=O
    -4%, -6%, -1%
Cc1ccccc1OCC(=O)NNC(=O)C1CC(=O)N(c2ccc3c(c2)OCCO3)C1 (stereo not drawn)
    -4%, -12%, 2%
C[C@H](CO)N1C[C@H](C)[C@@H](CN(C)C(=O)Nc2ccc(C(F)(F)F)cc2)Oc2c(NC(=O)C3CCCCC3)cccc2C1=O
    23%, 14%, 0%
COc1ccccc1NS(=O)(=O)c1cc(NC(=O)C(C)NC(N)=O)ccc1N1CCCC1 (stereo not drawn)
    56%[activator], -2%, 3%
CCN1C(=O)[C@H]2[C@@H](c3ccc(-c4cc(C(C)=O)cs4)cc3)N3CCC[C@@]3(C(=O)OC)[C@H]2C1=O
    -30%, 7%, -5%
C=CC[C@H](CC(=O)NCCO)C(=O)NCCOC(=O)[C@@H](CC=C)CC(=O)OC(C)(C)C
    1%, 5%, 4%
O=C(CNc1cccc(S(=O)(=O)N2CCCCCC2)c1)Nc1cccc([N+](=O)[O-])c1
    -25%, 3%, -2%
CCN(CC)CCNC(=S)NC(=O)c1cn(-c2ccccc2)nc1-c1ccc(OC)cc1
    -6%, -6%, 3%
CN(CC(=O)Nc1ccc(Cl)c(C(F)(F)F)c1)C(=O)C1CC(=O)N(C2CCCC2)C1 (stereo not drawn)
    -22%, 2%, 4%[6.58 µM]
O=C(NC1=NCCS1)c1ccccc1OCc1ccccc1Cl
    -8%, 1%, -22%
O=C(CC1CC2CCC1C2)N1CCN(S(=O)(=O)c2ccccc2[N+](=O)[O-])CC1 (stereo not drawn)
    -12%, 2%, -1%
O=C(CCN1C(=O)CSc2ccccc21)Nc1ccc(C(F)(F)F)cc1
    -13%, -9%, 2%
COCC(C)n1c(SCC(=O)N2CCOCC2)nc2ccccc2c1=O (stereo not drawn)
    -5%, 11%, 1%
CC(N)C(=O)NC(C(=O)N1CCCC1C(=O)NC(c1ccccc1)c1ccccc1)C(C)C (stereo not drawn)
    -16%, -7%, -1%
Cc1onc(-c2ccccc2)c1C(=O)NNC(=O)c1ccccc1Br
    7%, -7%, 2%
CC(C)(C)OC(=O)N[C@@H](C(=O)OC(C)(C)C)c1ccc2ccccc2c1
    -18%, -5%, 0%
CCOc1cc(N2CCOCC2)c(OCC)cc1NC(=O)C1CC(=O)N(c2ccccc2OCC)C1 (stereo not drawn)
    -18%, 10%, 2%
O=C(Cc1ccc(S(=O)(=O)N2CCOCC2)s1)OCc1ccc(Cl)cc1
    -14%, -10%, 0%
COc1ccccc1[C@]1(C)ON(c2ccccc2C(F)(F)F)C1=O
    ?, 11%, 0%
CCN(C[C@H]1N[C@@](Cc2ccccc2)(C(=O)OC)[C@H]2C(=O)N(Cc3ccccc3)C(=O)[C@@H]12)C(=O)COc1ccccc1
    -21%, -10%, 5%
C[C@H](CO)N1C[C@H](C)[C@@H](CN(C)S(=O)(=O)c2ccccc2)Oc2ccc(NC(=O)Nc3ccc4c(c3)OCO4)cc2C1=O
    -30%, 1%, -7%
CCc1ccc(-n2cccc2/C=C2/C(=N)N3C(=NC2=O)SN=C3S(C)(=O)=O)cc1
    -6%, 9%, -14%
C=CC[C@H](CC(=O)N[C@H](CO)Cc1ccccc1)C(=O)N[C@H](COC(=O)[C@@H](CC=C)CC(=O)OC(C)(C)C)Cc1c[nH]c2ccccc12
    -23%, -13%, 1%
Cc1ccc2[nH]c(CCN(C)C)c(CN3CCOCC3)c2c1
    -14%, 5%, -4%
O=C(c1ccc2nccnc2c1)N1CCN(c2cccc(C(F)(F)F)c2)CC1
    -20%, -4%, 4%
COc1ccc(CCNC(=O)CSc2nc3[nH]ncc3c(=O)n2-c2ccccc2Br)cc1OC
    0%, -5%, -1%
CC(C)N(C(=O)[C@H]1C[C@H](CC(=O)NCC23CC4CC(CC(C4)C2)C3)C(=O)N2CCc3c([nH]c4cc(CCC(=O)N(C)C)ccc34)[C@]12C)C(C)C
    ?, 7%, -2%
O=C(COc1ccccc1-c1ccccc1)N/N=C/c1cccnc1
    -3%, -8%, -11%
CCCCOC(=O)c1ccc(NC(=O)CN2C(=O)NC3(CCCCCC3)C2=O)cc1
    -10%, 28%, -15%
COc1cc(C(=O)NC(CCSC)C(=O)OCC(=O)NC(=O)C2CCCCC2)cc(OC)c1OC (stereo not drawn)
    23%, -4%, -3%
CC(=O)NCCSc1ccc(S(=O)(=O)N2CCCC2)cn1
    -9%, -9%, -7%

Source: PubChem (National Center for Advancing Translational Sciences (NCATS))
